Screening data as filed in PubChem BioAssay.
Arbovirus anti – arbovirus infection inhibition. arbovirus infection cell-based antiviral screen. hit rate 0.37% among 200,000. inhibition, % at 10 µM;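 active = inhibition from about 30%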;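 note: bluetongue infection of BSR cells; cell survival read as ATP light after 72 h; 0% = infected wells without compound and 100% = uninfected wells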
YopH inh – inhibitors of Yersinia enterocolitica YopH tyrosine phosphatase. fluorescence Ex485/Em525. inhibition, %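 (about 10 µM by stock and volumes)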. hit rate 0.16% among 140,000. AID 898;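 active = inhibition of 50% or more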;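 note: controls were vehicle for no effect and minimum signal wells for full effect; inactives centre near -20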
Mtb betalactam – beta-lactam sensitization of Mtb H37Rv; M. tuberculosis H37Rv growth with meropenem, percent inhibition; hits of this screen are not shown here; inhibition, % at 25 µM; hit rate 0.27% among 330,000; AID 434955;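 active = about 74% or more and at least 40 points above the plate without the antibiotic, then above 30% in a dose series; inconclusive = first-round hits that could not be retested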;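 note: growth measured after seven days incubation then overnight dye step; 0% = bacteria only wells and 100% = bacteria with antibiotic; twin plates without the antibiotic show which effects depend on it; some results filed as inactive read as strong as hits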
Mtb H37Rv – M. tuberculosis H37Rv growth inhibitors, H37Rv strain (AID 1626); M. tuberculosis H37Rv growth inhibition; higher % means a stronger effect; one-dose inhibition, % at 10 µM; IC50 in µM for titrated hits; hit rate 0.95% among 220,000;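 active = confirmed in a dose series; inconclusive = inhibition above 80% but not taken into the dose series; inactive = below 80% or under 30% at every dose of the series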;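 note: bacteria incubated seven days before Alamar blue readout; 0% = bacteria only wells and 100% = bacteria with antibiotic wells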
RecA intein inh – blocks M. tuberculosis RecA intein splicing. P9WHJ3. cell-free RecA intein splicing, fluorescence. inhibition, %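 (about 9 µM by stock and volumes)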. hit rate 0.75% among 290,000; in the data active = inhibition above about 30%; inconclusive = no clear call, values can overlap the other calls;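 note: 0% = vehicle wells and 100% = reference inhibitor control wells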
Target sequence (P9WHJ3 whole entry, looked up): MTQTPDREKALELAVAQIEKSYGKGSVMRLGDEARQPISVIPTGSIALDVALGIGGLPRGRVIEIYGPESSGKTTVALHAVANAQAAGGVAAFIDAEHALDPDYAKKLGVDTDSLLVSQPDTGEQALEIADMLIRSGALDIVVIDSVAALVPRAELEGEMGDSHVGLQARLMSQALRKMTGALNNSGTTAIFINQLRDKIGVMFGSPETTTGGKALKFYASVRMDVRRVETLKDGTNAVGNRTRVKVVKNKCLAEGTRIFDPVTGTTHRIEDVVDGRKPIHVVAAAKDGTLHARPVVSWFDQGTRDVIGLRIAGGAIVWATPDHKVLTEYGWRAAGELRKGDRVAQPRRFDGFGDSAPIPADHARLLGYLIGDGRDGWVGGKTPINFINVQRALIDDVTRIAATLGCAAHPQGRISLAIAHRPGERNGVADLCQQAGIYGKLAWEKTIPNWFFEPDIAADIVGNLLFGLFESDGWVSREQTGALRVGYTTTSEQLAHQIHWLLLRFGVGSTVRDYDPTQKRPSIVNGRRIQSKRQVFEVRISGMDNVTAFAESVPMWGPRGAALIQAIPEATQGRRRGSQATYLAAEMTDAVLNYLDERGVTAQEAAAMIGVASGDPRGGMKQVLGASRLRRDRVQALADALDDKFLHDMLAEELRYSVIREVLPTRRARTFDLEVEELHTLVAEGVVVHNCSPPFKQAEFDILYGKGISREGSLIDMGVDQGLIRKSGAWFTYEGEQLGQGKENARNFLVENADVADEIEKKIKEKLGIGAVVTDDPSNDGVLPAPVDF
Arbovirus anti repeat – further read-out of Arbovirus anti, marked with its call; inhibition, %; measured here: 10K subset replicate screen; many hits read low in the repeat;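 first of two repeat runs on a subset; 0% = infected and 100% = uninfected wells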
* = called active by the depositor; ? = inconclusive; . = no result given. A portion of the library, so the mix of outcomes need not match the whole.

SMILES	Arbovirus anti	YopH inh	Mtb betalactam	Mtb H37Rv	RecA intein inh	others
S=C(NCCCN1CCOCC1)N1CCN(c2cccc(Cl)c2)CC1	.	.	-2	.	0.9
O=C(NCC1COCCO1)C1CCN(S(=O)(=O)c2ccccc2)CC1 (centres undefined)	11	-1	2	-1%	0.4
CCOC(=O)c1ccc(NC(=O)NS(=O)(=O)c2ccc(C)cc2)cc1	-3	-54	97	8µM*	-0.7	Arbovirus anti repeat=-5
CCC1Oc2ccccc2N(CC(=O)NCCCN2CCN(c3ccc(OC)cc3)CC2)C1=O (centres undefined)	.	.	-4	.	-3.6
COC(=O)c1ccc(CSc2nc3ccccc3c(=O)n2C)o1	.	.	-2	.	0.8
Cc1nc2cc(NC(=O)NCc3ccc4c(c3)OCO4)ccc2o1	-7	-9	-2	0%	-0.4
O=C(CCNC(=O)c1ccccc1Cl)Nc1ccncc1	.	.	-16	.	-5.4
Cc1ccc(C)c(N=Cc2cc3c(cc2[N+](=O)[O-])OCO3)c1	2	.	-4	-13%	-1.3
CCOCCCNC(=O)CN(Cc1ccc(Cl)cc1)S(C)(=O)=O	3	-39	-6	-10%	-1.5
Cc1cc2c(cc(C(=O)NCc3cccnc3)n2Cc2ccc(Cl)cc2)o1	-3	-1	23	2%	0.3
CCOC(=O)C(/C=N/c1cc(C)nn1-c1ccccc1)=C(\C)O	1	-8	5	-4%	4.1
CCOC(=O)Cn1cc(C(=O)C2CC2)c2ccccc21	-3	-33	0	-8%	.
CSc1ccc(S(=O)(=O)N2CC(=O)Nc3ccccc32)cc1	.	.	-8	.	-4.4
CNc1nc2c(c(=O)[nH]c(=O)n2C)n1CCOC	-5	21	.	1%	1.0
O=C(/C=C/c1ccccc1)Nc1nc(-c2ccncc2)cs1	15	.	2	5%	.
CC(C)c1nc2sc3c(SCC(=O)NCc4ccco4)ncnc3c2c2c1CCC2	10	-25	0	-6%	6.2	Arbovirus anti repeat=1
O=C(O)c1c(Cl)nc2ccccn12	3	.	5	-3%	1.2
Cc1ccc(Cc2c(C)c(C#N)c3[nH]c4ccccc4n3c2=O)cc1	.	.	100	?	0.3
NC(=O)C1CCN(c2ccc3c(c2)S(=O)(=O)c2ccccc2C3=O)CC1	.	.	2	-9%	-5.7
Nc1c(C(=O)NCc2cccnc2)sc(=S)n1-c1ccccc1	2	-33	-6	-1%	1.3	Arbovirus anti repeat=-1

Some of these compounds in order of length of the SMILES, rising:
SMILES	Arbovirus anti	YopH inh	Mtb betalactam	Mtb H37Rv	RecA intein inh	others
O=C(O)c1c(Cl)nc2ccccn12	3	.	5	-3%	1.2
CNc1nc2c(c(=O)[nH]c(=O)n2C)n1CCOC	-5	21	.	1%	1.0
O=C(/C=C/c1ccccc1)Nc1nc(-c2ccncc2)cs1	15	.	2	5%	.
CC(C)c1nc2sc3c(SCC(=O)NCc4ccco4)ncnc3c2c2c1CCC2	10	-25	0	-6%	6.2	Arbovirus anti repeat=1
NC(=O)C1CCN(c2ccc3c(c2)S(=O)(=O)c2ccccc2C3=O)CC1	.	.	2	-9%	-5.7

(next part)
SMILES	Arbovirus anti	YopH inh	Mtb betalactam	Mtb H37Rv	RecA intein inh	others
CCCOC(=O)c1ccc(NC(=O)c2ccc(Br)o2)cc1	2	-16	98	0.68µM*	3.9
CCOC(=O)CC1C(=O)NCCN1C(=O)c1ccc(C)cc1 (centres undefined)	.	.	-7	.	-2.0
N#Cc1ccc(C(=O)Nc2cc(C3CC3)nn2-c2ccccc2)cc1	.	.	-2	.	-0.2
O=C(NCc1ccc(F)cc1)c1cc(C(=O)C2CC2)c[nH]1	.	.	-3	.	1.1
Cn1c(=O)c2c(nc(/C=C/c3cccc(Cl)c3)n2C)n(C)c1=O	.	.	3	-14%	-21
O=C(COc1nc2ccccc2nc1N1CCOCC1)NC1CCCCC1	1	-11	-2	5%	-4.2
CC(C)[C@H](NC(=O)c1ccc(Cl)c([N+](=O)[O-])c1)C(=O)NCc1ccc(F)cc1	4	-21	4	-13%	-2.6
O=C(CSc1ccc(Br)cc1)NCC(c1ccco1)N1CCCCC1 (centres undefined)	.	.	-8	.	-2.1
COC(=O)Nc1ccc(S(=O)(=O)Nc2cc(OC)nc(OC)n2)cc1	.	.	-13	.	-3.6
C/C(=N/NC(=O)CNC(=O)c1cccnc1)c1ccc(Cl)cc1	.	.	-4	.	-2.5
Cn1cccc1C(=O)NCCc1ccccc1	.	.	-4	.	-0.3
COc1ccc2[nH]cc(CCNC(=O)COc3ccc4ccc(=O)oc4c3)c2c1	.	.	0	.	-1.9
O=C(c1cccc(F)c1)N1CCCN(C(=O)c2cccc(F)c2)CC1	7	-3	-4	0%	-0.3
CC(NC(=O)CN1CCN(c2ncccn2)CC1)c1ccc(F)cc1 (centres undefined)	0	-64	-6	3%	-1.8
O=C(NS(=O)(=O)Nc1ccc(Br)cn1)c1c[nH]c2ccccc12	.	.	4	.	-2.3
CCCNC(=S)Nc1ccc(F)cc1F	.	.	-3	-3%	.
CCCn1c(SCC(=O)c2ccc(CC)cc2)n[nH]c1=O	8	-39	-8	-3%	1.0
COc1ccc(Cl)cc1NC(=O)Nc1cc(C)on1	.	.	-11	.	0.1
Cc1cc2c(o1)CC(C)(C)CC2=O	3	.	2	-5%	2.7
CC(C)[C@H](NC(=O)c1ccccc1)C(=O)OCC(=O)c1ccc(S(=O)(=O)N2CCCCC2)cc1	.	.	-12	.	1.9
Cc1cc(-c2cc(C(=O)NCc3ccccc3)on2)nc(S(C)(=O)=O)n1	.	.	64	-4%	22
Oc1cc(Cc2ccccc2)cnc1CN1CCOCC1	9	-53	-3	3%	-0.2	Arbovirus anti repeat=0
O=C(c1cnc2n(c1=O)CCS2)N1CCc2ccccc21	3	-21	-4	7%	-2.7	Arbovirus anti repeat=3
O=C(Nc1ccc(OC(F)(F)F)cc1)C1CCCN(S(=O)(=O)c2cccnc2)C1 (centres undefined)	-8	4	-3	11%	1.2
CC(OC(=O)c1cc2sccc2n1C)C(=O)NC(C)(C)C (centres undefined)	0	.	1	-10%	2.1
CCOc1ccc(NC(=O)CN(C)C(=O)C2CCN(c3ncnc4sc(C)c(C)c34)CC2)cc1OCC	.	.	87	.	-3.6
Cc1ccc(-n2c(C)n[nH]c2=S)cc1C	-2	-8	6	-7%	2.2
CCc1cc[n+](-c2nc3ccccc3nc2[N-]S(=O)(=O)c2ccc(Br)s2)cc1	-8	-28	-9	-7%	-0.6
O=C(CCN1C(=O)S/C(=C/c2ccc(Cl)cc2)C1=O)N1CCOCC1	9	-20	1	8%	5.6
CC1CN(c2ccc(C(F)(F)F)cc2[N+](=O)[O-])CCN1S(C)(=O)=O (centres undefined)	-7	-14	-7	1%	-4.3
Cc1cc(C)n2nc(SCC(=O)N(Cc3ccccc3)C3CCS(=O)(=O)C3)nc2n1 (centres undefined)	2	.	1	-3%	-4.1
COc1ccc(C2C3C(C)=NN=C3CC(C)(O)C2C(C)=O)cc1 (centres undefined)	-5	-10	6	26%	1.1
O=C(Nc1ccc(Cl)cc1C(=O)N1CCCC1)c1cccc([N+](=O)[O-])c1	-1	.	1	-1%	-0.5
COc1ccc(C2C(C#N)=C(N)OC3=C2C(=O)CCC3)cc1Cn1cc([N+](=O)[O-])cn1 (centres undefined)	11	-30	-1	2%	4.2
Nc1ccccc1Nc1cccc(C(F)(F)F)c1	-7	.	9	6%	4.7
O=C(CC(c1ccccc1)c1ccccc1)NCC(O)c1ccc([N+](=O)[O-])cc1 (centres undefined)	.	.	11	.	5.5
Cc1ccc(/C=C(\C#N)C(=O)NCc2ccco2)o1	2	.	-7	6%	-1.9
Oc1ccc(-c2onc(C(F)(F)F)c2-c2cscn2)c(O)c1	6	16	34	.	-2.5
COc1ccccc1NC(=O)Cn1c(CCC(=O)O)ccc1-c1ccc(C)cc1	0	.	3	-1%	-1.6
CC(=O)N[C@H](Cc1c[nH]c2ccccc12)C(=O)O	.	.	-1	-3%	8.8
O=C1c2ccccc2C(=O)N1c1ncccn1	2	-24	-13	-12%	-3.3
CCc1ccc(NS(=O)(=O)c2cccs2)cc1	2	-16	-8	5%	1.4
COc1ccc(-c2cc(C(F)F)n3ncc(C(=O)N4CCCc5ccccc54)c3n2)cc1	-11	.	-3	3%	-3.9
Cc1cc(SC2CCOC2=O)nc2ccccc12 (centres undefined)	-1	.	-3	-4%	.
CCCN=C(Nc1ccc(Cl)cc1)c1cccnc1	3	-53	-2	-3%	-1.0
Cc1ccc(-n2c(C)c(C)c3c(NCCO)ncnc32)cc1	.	.	8	.	1.2
CCNC(=S)N1CCC(c2nc3cc(C)c(C)cc3[nH]2)CC1	4	-18	-4	-4%	-1.0
Cc1cc(=O)[nH]c(SCC(=O)C23CC4CC(CC(C4)C2)C3)c1C#N	7	-32	-1	>100µM*	-3.3
O=C(NCc1cccnc1)c1cnc2n(c1=O)CCS2	-1	6	-5	-8%	1.2
CCOC(=O)c1c(C)[nH]c(C(=O)CSc2ccccc2)c1C	-5	-32	5	-7%	-2.2

Two records picked at random from those above, as already listed:
SMILES	Arbovirus anti	YopH inh	Mtb betalactam	Mtb H37Rv	RecA intein inh	others
Cc1ccc(-n2c(C)c(C)c3c(NCCO)ncnc32)cc1	.	.	8	.	1.2
O=C1c2ccccc2C(=O)N1c1ncccn1	2	-24	-13	-12%	-3.3

(further entries)
SMILES	Arbovirus anti	YopH inh	Mtb betalactam	Mtb H37Rv	RecA intein inh	others
Cn1cnnc1SCC(=O)Nc1sc2c(c1C#N)CCCCC2	10	-23	85	-2%	.
CCOc1ccc(NC(=O)c2cccc(OC(=S)N3CCC(C)CC3)c2)cc1	-8	-26	-16	-6%	4.0
COC(=O)C(Cc1ccccc1)P(=O)(c1ccccc1)c1ccccc1 (centres undefined)	-3	-28	4	-2%	-0.2
Cc1ccc2nsnc2c1NC(=S)NC(=O)c1ccco1	-3	-38	5	2%	-0.8
CC(C1CC2CCC1C2)n1c(-c2ccco2)n[nH]c1=S (centres undefined)	14	.	-2	7%	2.4
COc1ccccc1C(=O)Nc1ccc(S(=O)(=O)N(C)c2ccccc2)cc1	.	.	6	.	9.7
CC(C)C(=O)N1CCN(CCN=CC2=C(O)CC(c3ccco3)CC2=O)CC1 (centres undefined)	2	-42	-2	1%	.
CN(Cc1nc(-c2cnccn2)no1)Cc1cccc2ccccc12	-27	.	-5	-3%	2.7
Cc1ccc(NC(=O)COC(=O)c2csc3c2CCC(C)C3)cc1S(=O)(=O)N1CCCCC1 (centres undefined)	-1	-15	4	2%	0.5
CCN1C(=O)c2cccc3c(S(=O)(=O)NCc4ccccn4)ccc1c23	-8	-19	1	-3%	-296
CC(=O)Nc1ccc(S(=O)(=O)N(c2cccnc2)S(=O)(=O)c2ccc(NC(C)=O)cc2)cc1	3	-27	-13	-12%	-3.1
Cc1cc(=O)[nH]c(SCC(=O)Nc2ccc(S(=O)(=O)N3CCOCC3)cc2)n1	12	-4	-14	-15%	.
C=CCn1c(SCC(=O)Nc2nnc(C)s2)nnc1C1CC1	.	.	-10	.	0.3
COc1cc(S(=O)(=O)NCc2ccncc2)c(OC)cc1C	.	.	-1	.	-1.6
O=C(O)c1cccc(N2CCCC2=O)c1	4	-13	0	-1%	0.2
COc1cc2c(cc1OC)/C(=C/C(=O)c1ccccc1)NCC2	.	.	6	.	-1.8
COC(=O)c1cc(NS(=O)(=O)c2ccc(N3CCOCC3)c(NC(C)=O)c2)cc(C(=O)OC)c1	-3	-25	0	-1%	-3.2
CN(C)NC1=CC(=[N+]2CCCC2)CC(C)(C)C1	7	.	-6	-1%	-0.6
COc1ccc(-c2nnn(CC(=O)NCCc3ccc(OC)c(OC)c3)n2)cc1	-1	.	0	-1%	-1.4
CC1CN(C(=O)CN2C(=O)c3ccccc3C2=O)CC(C)O1 (centres undefined)	-2	1	-1	4%	0.2
COc1ccc(N2C(=O)CC(Sc3nccc(C)n3)C2=O)cc1 (centres undefined)	4	-32	1	.	.
Cn1cc([C@@H]2C[C@H]3CN(Cc4cccc(Cl)c4)C(=O)[C@]34CCCN24)c(-c2ccccc2)n1	-7	.	-4	8%	5.0
CCN(CC)C(=O)CN1C(=O)/C(=C/c2ccccc2)SC1=S	.	.	30	-8%	11
C=CCNC(=S)NNc1nc(Nc2ccccc2)nc(N2CCCCC2)n1	-13	.	-4	2%	4.7
COc1ccc2c(c1)c(=O)c(C(=O)c1ccccc1)cn2Cc1ccccc1	-21	-22	-1	.	2.4
O=C(N/C(=C/c1cccc([N+](=O)[O-])c1)C(=O)N1CCOCC1)c1ccc(Br)cc1	.	.	7	.	-0.5
COc1cccc(CNc2nc3nc(C)c(Cl)c(C)n3n2)c1	-4	-28	-1	-6%	-11
CC(C)CNC(=O)[C@H]1N2C(=O)c3ccccc3C2SC1(C)C (some centres undefined)	.	.	-5	.	1.0
